Compound activity (PubChem)
ClpP mod – qHTS Assay for Activators of ClpP | ATP-dependent Clp protease proteolytic subunit (Bacillus subtilis (strain 168)), P80244 | purified B. subtilis ClpP, FRET peptide cleavage, 20 min | Potency, µM (top dose mostly 57.5 µM), for the others: top-dose activity change, negative = active | 1.9% of 340,000 active | AID 651965, 2013; active = well fitted falling curve with a large enough effect; inconclusive = small, poorly fitted or top-dose-only effect; inactive = no such curve, though single readings can be large or run the other way; further: potency means the concentration at half of the fitted maximal effect; the source files actives as falling curves though it sought activators and does not explain the sign; nearly all actives have a fitted effect of over 65% in size; many hits overshoot -100%
Target sequence (P80244 whole entry, looked up): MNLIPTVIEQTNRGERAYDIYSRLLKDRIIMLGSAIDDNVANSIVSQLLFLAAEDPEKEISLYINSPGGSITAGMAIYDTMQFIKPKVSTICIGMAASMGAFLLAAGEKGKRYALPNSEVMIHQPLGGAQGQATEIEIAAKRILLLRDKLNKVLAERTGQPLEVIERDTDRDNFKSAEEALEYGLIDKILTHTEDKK
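Purified B. subtilis ClpP, 10 microg/mL final in Tris/HCl pH8 with KCl, BSA, glycerol and Tween-20, cleaved an Abz/nitrotyrosine-quenched decapeptide. Fluorescence (ex 320, em 430) was read at 0 and 20 min at room temperature. Delta was normalized to 5.8 microM ADEP and DMSO/no-enzyme controls.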
D2 potentiator – Beta-Arrestin HTS for Positive Allosteric Modulators of the Human D2 Dopamine Receptor: Potentiators; 0.23% of 360,000 active; DiscoveRx D2 beta-arrestin cells, luminescence, 90 min; 100% = 57 uM dopamine signal; D(2) dopamine receptor (Homo sapiens), P14416; potentiation, % (concentration not given with the values); active = potentiation of 50% or more; inconclusive = 30% to 50%; inactive = 30% or less;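 further: compound concentration not given in the record; tested on top of an EC20 dose of dopamine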
Target sequence (P14416 whole entry, looked up): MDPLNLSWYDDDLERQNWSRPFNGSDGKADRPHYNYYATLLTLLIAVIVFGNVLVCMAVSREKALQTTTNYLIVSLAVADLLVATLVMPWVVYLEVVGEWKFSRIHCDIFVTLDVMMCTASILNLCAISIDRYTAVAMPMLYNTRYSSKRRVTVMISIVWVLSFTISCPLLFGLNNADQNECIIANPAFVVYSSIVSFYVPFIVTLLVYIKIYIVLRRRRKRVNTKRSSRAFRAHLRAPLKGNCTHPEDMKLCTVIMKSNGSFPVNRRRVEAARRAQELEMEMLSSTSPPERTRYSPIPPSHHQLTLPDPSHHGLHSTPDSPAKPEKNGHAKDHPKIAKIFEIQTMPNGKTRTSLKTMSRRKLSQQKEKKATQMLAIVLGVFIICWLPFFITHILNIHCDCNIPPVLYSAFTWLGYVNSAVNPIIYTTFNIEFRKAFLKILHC
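D2 cells co-treated with compound plus 50 nM dopamine (EC20) for 90 min at 37 deg C to detect potentiation. Beta-arrestin recruitment was read as enzyme-fragment luminescence after 1 h at ambient temperature. Full response was set by 57 uM dopamine.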
gsp antagonist – qHTS for Antagonists of gsp, the Etiologic Mutation Responsible for Fibrous Dysplasia/McCune-Albright Syndrome: qHTS; gsp-mutant cells, cAMP HTRF, 30 min; control for the full effect not named in the record; Potency, µM (series often up to 76.9 µM), without a hit: at the highest dose activity change, negative = inhibition, most hits filed as inhibitors; AID 624288, 2012; 0.4% of 340,000 active; active = falling curve of any shape with a large fitted effect; inconclusive = falling curve, mostly with a smaller effect; inactive = flat or rising curve; cell line not stated here;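 further: intracellular cAMP measured with PDE inhibitor Ro 20-1724 present during compound exposure; potency means the concentration at half of the fitted maximal effect; on the % scale 0 is the no-effect control and ±100 the full control effect; nearly all actives have a fitted effect of over 65% in size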
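Cells in G418 medium, seeded 16-24 h, 37C; buffer exchange to DPBS + 1 mM CaCl2, 0.5 mM MgCl2, 0.05% BSA; cpds in DMSO + […] (300 uM stock), 30 min 37C; HTRF cAMP detection.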
Menin-MLL FL inh – qHTS Assay for Inhibitors Targeting the Menin-MLL Interaction in MLL Related Leukemias: Competition With Fluorescein Labeled MLL-derived Peptide. Fluorescence polarization, fluorescein-MLL peptide displacement from menin. FP activity change, % at 61.4 µM. 290,000 tested, under 10 active; inconclusive = falling polarisation curve, or a change in total fluorescence; inactive = total fluorescence flat and polarisation flat or rising; no compound was filed as active; the % refers to the polarisation; negative = inhibition;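 further: % of control where 0% means no effect; inhibitors lower the polarisation; unlabelled MLL peptide was the positive control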
TRPV1 PAM – HTS Assay for Compounds that Act as Potentiators of the Vanilloid Receptor 1; Transient receptor potential cation channel subfamily V member 1 (Homo sapiens), Q8NER1; TRPV1-expressing cells, Fluo-8 calcium influx, capsaicin EC20 potentiation; host cell line not named in the record; control for the full effect not named in the record; potentiation, % at 8.33 µM; 0.02% of 320,000 active; active means potentiation above 80%; inconclusive means 30% to 80%; inactive means below 30%; further: 0% is about no effect
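Fluo-8 calcium influx in TRPV1-expressing cells, kinetic read (ex 480/em 520 nm). Compound added and read 3 min for agonist activity, followed by capsaicin at EC20 final and 2 min further read for enhancement.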
gsp agonist – qHTS for Agonist of gsp, the Etiologic Mutation Responsible for Fibrous Dysplasia/McCune-Albright Syndrome: qHTS. gsp mutant cells, cAMP HTRF, 30 min; control for the full effect not named in the record. Potency, µM (highest dose often 76.9 µM), without a hit: at the top dose activation (cAMP increase), actives largely listed as activators. 0.13% of 340,000 active; active = well fitted activation curve with a large enough effect; inconclusive = small, poorly fitted or top-dose-only effect, or another doubt; inactive = no such curve, though single readings can be large or run the other way; cell line not stated here;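 further: phosphodiesterase inhibitor Ro 20-1724 added with compounds to block cAMP breakdown; potency means the concentration at half of the fitted maximal effect; nearly all actives have a fitted effect of over 60% in size; about a fifth of the inactives were tested at one dose only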
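Cells stably selected in G418 were plated at 2000/well, grown 16-24 hr, then given compounds in DMSO with the PDE inhibitor […] (300 uM solution added) for 30 min at 37C; cAMP was read by HTRF.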
Sfp inh – qHTS Assay for Inhibitors of Bacillus subtilis Sfp phosphopantetheinyl transferase (PPTase); 4'-phosphopantetheinyl transferase ffp (Bacillus subtilis), Q9F4F7; AID 1490, 2009; Potency, µM, for the others: max response, negative = inhibition, most hits filed as inhibitors; Biochemical Sfp PPTase activity, qHTS; 3.5% of 310,000 active; active means well fitted inhibition curve with a large enough effect; inconclusive means small, poorly fitted or top-dose-only effect, or another doubt; inactive means no such curve, though single readings can be large or run the other way;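 further: the enzyme is Sfp with the accession as filed and its product quenches rhodamine fluorescence; potency means the concentration at half of the fitted maximal effect; 0% = enzyme reaction without inhibitor and -100% = no enzyme wells; top concentration of the series not given in the record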
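Buffer: 50 mM Hepes-Na pH 7.6, 10 mM MgCl2, 0.01% Nonidet P-40, 0.01% BSA. Enzyme 15 nM, pre-exposed to compound 15 min; substrates then added and fluorescence change tracked over 30 min.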
Active calls of the source: *; u = inconclusive; x = not tested or not shown; & = joins results of further samples; [ ] = another dose, or the depositor's remark.

SMILES | ClpP mod | D2 potentiator | gsp antagonist | Menin-MLL FL inh | TRPV1 PAM | gsp agonist | Sfp inh
CSc1ccc(Cn2nnc(C(=O)Nc3ccc(C)c(C)c3)c2N)cc1 | 4.2% | -2.8 | 4.7% | -2.8 | -13.6 | -2.6% | -13.2%
Cc1ccc(S(=O)(=O)NC2CC(C)(C)NC(C)(C)C2)c(C)c1C | -3.8% | -4.6 | 10.1% | 1.0 | 26.9 | 11.3%[15.4 µM] | 8.0%
O=C(NC(c1ccccc1)c1ccccc1)c1ccc(S(=O)(=O)C(F)F)cc1 | -4.5% | -0.5 | -2.8% | 1.4 | -16.3 | 20.2% | 16.2%
Cc1cc2c(cc1C)C(c1cc(Br)ccc1F)CC(=O)N2 (stereo unspecified) | 1.6% | -16.6 | -2.9% | 0.1 | -8.1 | -29.8% | 14.7%
CSCCNC(=O)c1ccc(OC2CCN(CCc3ccccc3)CC2)cc1 | -2.7% | -19.3 | 5.6% | -10.6 | -3.6 | 26.5% | 17.2%
FC(F)(F)c1cnc(Sc2nc3nccc(-c4ccc(Cl)cc4)n3n2)c(Cl)c1 | 259.4% | -11.1 | -0.6% | 4.4 | -5.6 | -12.8% | 4.9%
CCOC(=O)N1CCC(N(CCOC)C(=O)Nc2ccc(Cl)cc2)CC1 | -0.5% | -13.9 | -8.1% | 6.4 | 6.7 | -12.6% | 6.7%
COc1ccc(C2C(C#N)=C(N)N(c3ccccc3C#N)C3=C2C(=O)CCC3)cc1CN1CCCC1 (stereo unspecified) | -6.9% | -27.7 | -0.7% | 0.7 | 26.9 | u | 3.2%
C#CCOCCOCCOCCNc1nc(N2CCN(C(=O)[C@H](CCCCN)n3cc(CN)nn3)CC2)nc(N2CCN(C(=O)[C@H](CCCCN)n3cc(CN)nn3)CC2)n1 | -2.0% | -6.7 | 8.5% | x | x | u | x
CCOC(=O)c1cc(NC(=O)Nc2ccccc2OC)c(C)nc1C | -0.1% | -29.9 | 10.0% | 2.2 | -9.2 | 16.3% | 26.9%

The final two records of the section before lead into the next:
SMILES | ClpP mod | D2 potentiator | gsp antagonist | Menin-MLL FL inh | TRPV1 PAM | gsp agonist | Sfp inh
C#CCOCCOCCOCCNc1nc(N2CCN(C(=O)[C@H](CCCCN)n3cc(CN)nn3)CC2)nc(N2CCN(C(=O)[C@H](CCCCN)n3cc(CN)nn3)CC2)n1 | -2.0% | -6.7 | 8.5% | x | x | u | x
CCOC(=O)c1cc(NC(=O)Nc2ccccc2OC)c(C)nc1C | -0.1% | -29.9 | 10.0% | 2.2 | -9.2 | 16.3% | 26.9%
CC1=CN2C(=N)/C(=C/c3ccc([N+](=O)[O-])o3)C(=O)N=C2S1 | -5.0% | 25.8 | -20.2% | u | 6.8 | 22.9% | 35.5µM*
O=C(CCn1cnc2ccccc2c1=O)Nc1nc2c(s1)CCCC2 | 1.3% | -12.0 | 24.5% | -1.9 | 6.3 | 2.0% | 19.7%
COc1ccc(C(=O)CCC(=O)N2CCN(c3cc(C)ccc3C)CC2)cc1 | -2.2% | -8.9 | u | -0.6 | -10.1 | 16.6% | 1.4%
CN1CCN(C(=O)CC2(CC(=O)O)CCCC2)CC1 | x | -23.1 | x | -1.5 | 2.8 | -4.5%[15.4 µM] | -13.2%
Cc1ccc(C(=O)NCC(=O)OCC(=O)NCCNC(=O)COC(=O)CNC(=O)c2ccc(C)cc2)cc1 | 0.7% | -4.9 | -5.6% | x | -7.6 | 13.8% | x
Cc1noc(C)c1CSCC(=O)Nc1nc2ccc(F)cc2s1 | -2.6% | -8.3 | -5.3% | x | -19.1 | -4.9% | x
CCC(C)(NC(=O)c1ccccn1)C(=O)NC1CCCC1 (stereo unspecified) | x | 5.1 | 8.2% | 3.1 | -8.0 | 2.9%[15.4 µM] | 14.6%
O=C(CN1CCOCC1)NCCc1ccccc1 | -0.4% | -9.4 | 13.1% | 3.9 | -13.0 | 8.1%[15.4 µM] | 0.7%
COc1ccc2c(/C=N/NS(=O)(=O)c3ccc(C)cc3)c[nH]c2c1 | x | 1.7 | 0.4% | 2.3 | 13.1 | 4.2%[15.4 µM] | 56.2µM*
Cc1c(CCC(=O)O)c(=O)oc2c(C)c3occ(-c4ccc(Cl)cc4)c3cc12 | -0.9% | -1.7 | 31.6µM* | -6.5 | 3.0 | 10.9%[15.4 µM] | -29.5%
COc1ccc(CN(Cc2ccc(C(=O)O)cc2)C(=S)Nc2cc(C)cc(C)c2)cc1OC | 1.7% | -10.6 | -10.8% | -0.2 | 12.2 | 3.5% | 25.2%
CCOC(=O)CN1C(=O)S/C(=C/c2ccc(C)o2)C1=O | 0.5% | 5.0 | -1.5% | u | 1.7 | -6.6%[15.4 µM] | -23.6%
Cc1ccc(C(=O)NNC(=O)CSc2nnc3ccccn23)cc1 | x | -3.6 | -1.4% | x | x | -15.3% | x
CCC(=O)Nc1sc(C(=O)N2CCCCC2)c(C)c1C#N | 0.4% | -7.1 | 9.2% | -2.3 | -2.9 | 17.7% | 8.8%
CC(=O)Nc1ccc(NC(=O)c2nccnc2C(=O)O)cn1 | -2.4% | -6.8 | 6.1% | -5.2 | -4.0 | 2.4% | -10.4%
Cc1ccc(S(=O)(=O)/N=C(/c2ccccc2)N2CCOCC2)cc1 | x | -1.5 | 12.5% | 6.3 | -10.1 | 8.0%[15.4 µM] | 5.6%
COc1ccc(C(=O)OCC(=O)N2CCCCCC2)cc1S(=O)(=O)N1CCOCC1 | -0.4% | -0.4 | -4.2% | x | 26.1 | u | x
O=[N+]([O-])c1ccccc1N(S(=O)(=O)c1ccccc1)S(=O)(=O)c1ccccc1 | -0.6% | -11.8 | -9.9% | x | x | 14.5%[15.4 µM] | x
O=[N+]([O-])c1ccc(-c2nn(-c3ccccc3)cc2/C=N/n2c(-c3ccncc3)n[nH]c2=S)cc1 | x | -3.5 | -11.6% | 0.6 | -6.7 | 1.0% | 5.5%
OC(CN1c2ccccc2Sc2ccccc21)Cn1nnc2ccccc21 (stereo unspecified) | -1.3% | -1.8 | -16.6% | 3.1 | -6.7 | -48.7%[inhibitor] | -8.9%
CCOC(=O)CCCNC(=O)COC(=O)c1cc2ccccc2cc1O | -6.2% | -7.3 | u | 3.9 | u | 3.0% | 2.0%
CN1N=C(C(=O)N2CCCC(C(=O)c3cccc(C(F)(F)F)c3)C2)CCC1=O (stereo unspecified) | x | 0.2 | 15.3% | 1.1 | 4.4 | 6.4% | 6.1%
CCCCNS(=O)(=O)c1ccc(S(=O)(=O)NCc2ccncc2)cc1 | -0.8% | -19.2 | -13.3% | 0.1 | -6.7 | 13.1% | -3.7%
O=C(CSc1nnnn1C1CCCC1)NCCc1ccccc1 | x | -0.4 | 7.6% | -1.0 | 3.1 | -11.0%[15.4 µM] | 3.7%
Cc1ccc(C2(C)NC(=O)N(CC(=O)Nc3ccccc3C(=O)NC3CCCC3)C2=O)cc1 (stereo unspecified) | -1.1% | -8.2 | -2.8% | x | 3.6 | 7.3%[15.4 µM] | x
Cn1cccc1Cc1nnc(SCC(=O)NCC2CCCO2)n1C (stereo unspecified) | 0.4% | 0.9 | -8.6% | -2.5 | -2.4 | 0.0% | -7.5%
CCOC(=O)C1CCCN(C(=O)CCCn2nnnc2CN2CCOCC2)C1 (stereo unspecified) | -0.1% | -9.1 | 2.9% | 1.1 | 2.0 | u | 7.2%
CCc1ccc(NC(=S)NC2CC3CCCC(C2)N3Cc2cccs2)cc1 (stereo unspecified) | 0.3% | -28.6 | 2.4% | -1.6 | -12.0 | -27.8% | 9.5%
Cc1[nH]nc2c1C(c1ccc(F)cc1)C1=C(CC(C)(C)CC1=O)N2 (stereo unspecified) | 25.1µM* | -13.2 | -6.9% | 2.8 | -2.4 | 0.0% | 16.7%
O=C(NCCC1=CCCCC1)c1cc(S(=O)(=O)N2CCOCC2)c(Cl)cc1Cl | -4.6% | 14.6 | -12.3% | x | -6.1 | -51.5%[inhibitor] | x
Cc1ccc(N2CCN(S(=O)(=O)c3ccc4oc(=O)ccc4c3)CC2)c(C)c1 | x | -0.8 | -10.1% | 6.3 | 7.8 | 2.3% | 1.6%
CC(=O)c1cccc(NC(=O)COC(=O)c2ccc(S(C)(=O)=O)c([N+](=O)[O-])c2)c1 | 0.6%&-2.5% | 0.2 | -8.7% | -2.2 | -3.2 | 18.7% | 5.2%
COc1ccc(CCNC(=O)CSc2cccc3cccnc23)cc1OC | x | -11.0 | 7.9% | -2.0 | -0.8 | 15.9% | 2.0%
CCCNC(=O)NC(C(=O)OC)C12CC3CC(CC(C3)C1)C2 (stereo unspecified) | -16.3% | -16.7 | -5.7% | 4.8 | -1.8 | -0.1% | -18.3%
COCCn1c(SCC(=O)Nc2ccccc2OC)nc2c([nH]c3ccccc32)c1=O | -10.7% | -7.9 | -18.1% | x | 1.5 | 14.5% | -6.2%
O=C(O)c1cc(S(=O)(=O)O)cc(Nc2c3ccccc3nc3ccccc23)c1O | x | -2.6 | 0.9% | x | 25.3 | u | u
O=c1[nH]c(CN2CCN(c3ccc([N+](=O)[O-])cc3)CC2)nc2ccsc12 | 0.9% | -22.4 | -8.5% | 1.9 | -0.1 | u | -9.8%
COc1cccc(NC(=S)N/N=C2\CC3CCC2(C)C3(C)C)c1 (stereo unspecified) | x | -15.8 | -8.7% | 9.9 | 22.2 | -7.5% | -2.1%
COc1cc(NC(=O)NCc2ccncc2)cc(OC)c1OC | -0.6% | -8.4 | -1.9% | 1.9 | -0.2 | u | 12.5%
Fc1cnc(N2CCOCC2)nc1N1CCc2ccccc21 | 1.2% | -33.3 | -10.1% | -1.8 | -12.0 | 15.2% | 7.7%
N#Cc1ccccc1NC(=O)COC(=O)c1ccc2c(c1)OCO2 | -11.6% | -4.4 | -13.0% | x | 0.7 | -5.8% | x
